# Beta cell apopt – inhibitors of cytokine-induced beta cell apoptosis, primary screen, luminescence; INS-1E cytokine-induced death, ATP luminescence, 48 h; percent of positive-control rescue, neutral wells zero; protection from apoptosis, % (test concentration not listed); hit rate 0.8% among 300,000; AID 435005, 2010;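 active means all replicates at 75% or more, or half of them and the mean; inconclusive means half reach 75% but not the mean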;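 further: 0% = cytokine-treated negative control wells and 100% = positive control rescue; higher means more ATP so stronger rescue from cytokine killing; wells of about 40 µL received 100 nL stock; the first replicate is given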
# Calb FLC – C. albicans growth inhibition with fluconazole, primary screen, CaCi-2 strain, Alamar Blue fluorescence | growth inhibition, % (no concentration beside the values) | C. albicans CaCi-2 (fluconazole-resistant clinical isolate) + fluconazole, 48 h | AID 1979, 2009 | hit rate 0.57% among 300,000;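 active means most replicates above 75%; inconclusive means exactly half above 75%; inactive means most below 75%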;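 further: all wells also contain fluconazole at 8 µg/ml as a sub-toxic cotreatment; 0% = median of DMSO wells and 100% = median of geldanamycin control wells; wells of about 8 µL received 7.5 nL stock; the first replicate is given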
# LANA-H2A inh – blockers of LANA interaction with H2A/H2B – biochemical, FP readout, HTS, primary screen; Protein LANA1 (Human herpesvirus 8 type P (isolate GK18)), Q9QR71; cell-free LANA-H2A/H2B peptide, fluorescence polarization; hit rate 0.6% among 320,000; inhibition, % (concentration not given with the values); in the data active means inhibition mostly above about 10%, no sharp cut-off; inactive means mostly below about 6.7%;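 further: stock transfer was 7.5 nL into about 10 µL; 0% = median of vehicle wells and 100% = median of positive control wells; one replicate is shown; the record names a cut of 25% in any replicate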
# UCH37 inh – inhibitors of human UCH37 deubiquitinase, primary screen, biochemical, Ub-AMC cleavage, fluorescence; hit rate 0.33% among 330,000; AID 588478, 2011; purified proteasome/UCH37; inhibition, % (no concentration beside the values); Ubiquitin carboxyl-terminal hydrolase isozyme L5 (Homo sapiens), Q9Y5K5;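 active means mean of two replicates above 20%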;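 further: 0% = compound-free wells with enzyme and 100% = wells lacking proteasome; stock transfer was 100 nL into about 20 µL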
# Target sequence (Q9Y5K5 whole entry, looked up): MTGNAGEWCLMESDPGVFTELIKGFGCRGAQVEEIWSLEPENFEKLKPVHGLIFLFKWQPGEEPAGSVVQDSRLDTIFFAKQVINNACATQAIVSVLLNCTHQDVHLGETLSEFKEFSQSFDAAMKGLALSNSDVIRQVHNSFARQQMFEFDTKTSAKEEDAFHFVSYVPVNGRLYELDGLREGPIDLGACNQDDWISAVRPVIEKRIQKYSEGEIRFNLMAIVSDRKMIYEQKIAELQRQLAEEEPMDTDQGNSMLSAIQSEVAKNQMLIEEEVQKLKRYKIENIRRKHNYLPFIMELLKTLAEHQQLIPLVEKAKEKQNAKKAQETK
#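 assay system = human UCH37 enzyme supplied as purified proteasome complex | amount = proteasome at 0.15 nM in the dispensed enzyme solution | schedule = 30 min compound-proteasome preincubation then 25 min substrate reaction, room temperature | measured by = fluorescence, ex 355 nm, em 460 nm | benchmarks = no-proteasome wells (full inhibition) and compound-free wells (no inhibition)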
# Bfl-1 A1 inh – caspase 3/7 activation in MEF A1-2A-BIM cells, primary screen, A1 inhibitor project, cell-based, luminescence, HTS. Caspase-Glo 3/7 luminescence, 3 h; percent of clofoctol response, vehicle zero. hit rate 0.066% among 330,000. caspase activation, % (test concentration not listed). AID 2462, 2010;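 active means over half of replicate activation scores above 10%, or exactly half above 10 with the replicate mean above 10; inconclusive means replicate mean below 10 yet half the replicates above 10; inactive means over half of replicates below 10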;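 further: wells of about 30 µL received 50 nL stock; many hits fall short of the cut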
# T cruzi repl – inhibitors of intracellular T. cruzi growth, primary screen, luminescence, NIH3T3 host cells | T. cruzi beta-gal in NIH3T3, 90 h | inhibition, % (no concentration beside the values) | hit rate 1.4% among 300,000 | AID 1885, 2009;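 active means mean inhibition across valid replicates above about 55%, limit read from the data; inconclusive means mean below that limit but half or more replicates reach it; inactive means mean below it, under half of replicates reach it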;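 further: signal also drops with host cell toxicity which is not excluded here; 0% = plate median of DMSO wells and 100% = zero luminescence signal; higher percent means less beta-gal luminescence so fewer parasites; stock transfer was 50 nL into about 50 µL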
# B2AR ag – beta2AR agonists driving receptor internalization, primary screen, cell-based, FAP fluorogen, flow cytometry. Beta-2 adrenergic receptor (Homo sapiens), P07550. hit rate 0.43% among 340,000. Am2.2-beta2AR cells; reference of the scale not given here. response, % (concentration not given with the values). AID 504454, 2011;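 active means response above a set limit, near 3 SD of response in nonfluorescent compounds, cut at about 42% in these data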;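 further: stock transfer was 100 nL into about 11 µL; a reference agonist was the positive control; negative values mostly stem from fluorescent compounds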
# Target sequence (P07550 whole entry, looked up): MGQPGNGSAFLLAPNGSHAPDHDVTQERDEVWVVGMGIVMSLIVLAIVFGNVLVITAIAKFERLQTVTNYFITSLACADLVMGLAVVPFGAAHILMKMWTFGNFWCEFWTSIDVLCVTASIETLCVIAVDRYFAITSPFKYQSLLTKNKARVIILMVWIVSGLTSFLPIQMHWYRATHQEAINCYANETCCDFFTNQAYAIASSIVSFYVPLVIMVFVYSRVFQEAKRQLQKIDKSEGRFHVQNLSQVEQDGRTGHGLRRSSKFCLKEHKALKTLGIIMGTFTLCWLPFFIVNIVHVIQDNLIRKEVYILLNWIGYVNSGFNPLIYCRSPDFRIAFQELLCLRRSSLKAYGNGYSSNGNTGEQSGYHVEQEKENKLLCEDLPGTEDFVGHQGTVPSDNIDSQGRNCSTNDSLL
# RanGTP-Impb inh – inhibitors of RanGTP-importin-beta interaction, primary screen, biochemical, FRET, CFP-Ran, YFP-importin-beta, homogeneous. cell-free CFP-Ran/YFP-importin-beta FRET ratio. inhibition, % (no concentration beside the values). Ran GTPase (GTP-bound) - importin-beta complex. hit rate 1.1% among 300,000;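 active means most replicates above 15%; inconclusive means exactly half above 15%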;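 further: 0% = DMSO wells and 100% = Ran loaded with GDP instead of GTP; wells of about 40 µL received 100 nL stock; the first replicate is given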
# * hit, by the source's call; ? = inconclusive; / = no result given; + = active, no number. The order is random. About 4.3% of those tested had a hit in this group.
molecule	Beta cell apopt	Calb FLC	LANA-H2A inh	UCH37 inh	Bfl-1 A1 inh	T cruzi repl	B2AR ag	RanGTP-Impb inh
Cc1ccc(-c2csc(N/N=C/c3ccco3)n2)c(C)c1	3.4	-2.6	4.4	/	0.1	5.5	7.1	?
Cc1cccc(C(=O)c2cn[nH]c2-c2ccc(C)cc2O)c1	3.2	12.4	-0.2	5.6	-0.6	-2.0	-5.4	2.7
COc1ccc(N2C(=O)CSC2c2ccccc2[N+](=O)[O-])cc1 (stereo not given)	-5.8	-33.4	+	2.8	0.0	6.6	6.9	?
O=C1CSC(=Nc2ccccc2)N1Cc1ccccc1	4.3	36.0	-0.1	4.3	0.2	-7.5	-10.2	1.4
COC(=O)c1ccccc1N(C)S(=O)(=O)c1cc2c(cc1C)OCC(=O)N2	-2.1	-18.8	2.8	1.6	-0.7	-3.4	4.0	4.3
COc1ccccc1CNCC(=O)Nc1ccc(N2CCOCC2)cc1	-2.3	0.9	-3.2	2.5	0.5	-0.7	0.4	-2.8
COc1ccc(OC)c(C(C(=O)NC2CCCCC2)N(Cc2ccco2)C(=O)c2ccccn2)c1 (stereo not given)	0.0	2.8	6.0	2.4	0.4	8.9	-2.0	0.3
O=C(CCCc1ccccc1)Nc1ccccc1C(F)(F)F	0.2	5.3	-0.7	-1.9	-0.1	-9.1	-5.7	6.4
O=C(Nc1ccc(Br)cc1)C1CC(c2c(F)cccc2Cl)=NO1 (stereo not given)	-10.3	13.7	-1.5	/	1.0	-1.1	-1.4	2.1
Cc1nn(Cc2ccc(Cl)cc2)c(C)c1NC(=O)c1cc(-c2ccco2)on1	3.4	-3.1	-1.2	2.9	-0.2	-15.1	-0.9	2.6
COc1ccc(NC(=O)CN(C)C(=O)Cc2c(C)nc3ccccc3c2C)cc1	1.9	-2.7	-0.4	-2.4	-0.5	4.4	-3.4	-2.1
O=C(COC(=O)C1CC(O)CN1S(=O)(=O)c1ccc(Cl)cc1)c1cccc(Cl)c1 (stereo not given)	-3.4	-2.9	2.9	1.4	0.3	-10.7	2.8	?
CCOC(=O)c1ccc2nc(NC(C)=O)sc2c1	10.0	7.9	-12.8	3.3	-3.8	4.3	0.2	1.1
CCCC(=O)C1C(=O)CC(CC(C)SCC)CC1=O (stereo not given)	-3.6	5.9	-1.7	-1.6	0.6	-14.7	1.4	-3.6
COC(=O)c1ccccc1S(=O)(=O)N1CCn2cccc2C1C (stereo not given)	-10.3	-13.1	10.8	1.1	0.0	-15.0	3.6	0.4
O=C(Nc1ccccc1F)C1CCCC1	0.1	-3.3	-0.2	2.3	-0.1	-3.7	-1.5	2.0
Cc1ccc2oc(=O)c3cnn(CC(=O)NC4CCN(Cc5ccccc5)CC4)c3c2c1	2.0	-3.2	-1.8	5.1	0.2	57.1*	-2.8	1.3
COCCn1nnnc1SCC(=O)NCc1ccc2c(c1)OCO2	-2.4	37.9	6.6	-1.0	-0.6	-6.3	0.6	?
O=C(Oc1ccc2c(=O)c(Cl)coc2c1)c1ccncc1	-1.9	-9.4	-3.5	-69.8	0.6	-6.8	-6.1	-2.7
CCCCOC(=O)Nc1ccccc1C(N)=O	/	-5.9	-3.4	3.5	-0.8	-21.7	1.3	?
CN(C)/C=N/c1ncc(C(=O)c2ccc(Cl)cc2Cl)s1	12.7	-0.2	-2.8	/	0.0	-1.6	-11.4	1.1
O=C(c1cc(-c2cccnc2)nc2ccc(Br)cc12)N1CCN(c2ncccn2)CC1	-2.7	18.9	-4.6	1.9	-0.3	21.6	13.2	-0.8
Cc1nn(-c2ccccc2)c(C)c1/C=N/NC(=O)c1ccccc1O	5.9	-6.0	-1.9	/	1.3	-10.4	9.1	-0.2
CS(=O)(=NS(=O)(=O)c1ccc(Cl)cc1)c1ccccc1 (stereo not given)	-1.7	3.4	-0.8	6.9	-2.1	-15.2	11.2	-4.5
CCOc1ccc(-n2cc(C(=O)Nc3ccc(Cl)cn3)c3cc(OC)c(OC)cc3c2=O)cc1	/	-32.8	/	1.1	/	13.4	10.5	-2.2
Cc1ccc(-n2ccnc(SCC(=O)NCCc3ccccc3)c2=O)cc1F	-7.8	-2.5	/	-32.0	0.7	-2.1	-3.7	-1.5
CCOc1ccc2c(c1)C(C)=CC(C)(C)N2C(=O)Nc1ccccc1	2.3	4.4	-2.4	-57.3	-0.7	14.8	5.2	-1.8
Cc1nn(C)c(C(=O)N/N=C/c2ccc(C(F)(F)F)cc2)c1[N+](=O)[O-]	-5.3	-2.3	-4.1	/	0.1	-6.6	0.1	?
CCCCN(CC)CCNC(=O)c1[nH]c(C)c(C(C)=O)c1C	-8.7	42.2	3.5	2.6	0.7	-2.3	0.6	-4.6
C[C@@H](CN1CCC[C@H]1CN1C(N)=NC[C@@H]1Cc1ccccc1)N1C[C@@H](Cc2ccccc2)N(CCCC2CCCC2)C1=N	5.2	/	-0.5	-1.0	0.4	/	0.2	/
COC(=O)C1CCN(C(=O)c2cc(-c3ccco3)nc3ccccc23)CC1	-1.3	/	5.2	/	-0.1	/	7.2	/
O=C(c1sc2ccccc2c1Cl)N(Cc1ccco1)C1CCS(=O)(=O)C1 (stereo not given)	-0.2	15.7	-2.0	2.0	0.6	9.0	-11.8	2.5
Clc1ccc2c(c1)C(N1CCNCC1)Cc1ccccc1S2 (stereo not given)	27.0	/	3.6	9.0	0.2	3.8	26.3	1.3
COc1ccc(OC)c(C(=O)N2CCC(C(=O)c3ccc(F)cc3)CC2)c1	-3.3	11.5	-2.8	2.1	0.7	0.7	4.4	-1.3
O=C(CC1C(=O)NCCN1Cc1cccc(Oc2ccccc2)c1)NCCc1ccccn1 (stereo not given)	-7.1	-10.8	-2.6	-1.3	-0.2	-3.4	-1.6	-2.7
Cc1cc(C)nc(N2CCC(C(=O)Nc3ccc4c(c3)OCCO4)CC2)n1	-2.7	-8.5	5.2	1.0	0.9	2.3	-6.4	-2.3
CC(C)OCCCNC(=O)c1cc(Sc2ccc(F)cc2)nc2ccccc12	0.0	-2.3	4.0	1.3	0.5	-9.5	-3.1	0.0
COC(=O)c1c(C)[nH]c(C(=O)COc2ccc3ccc(=O)oc3c2)c1C	3.3	/	3.5	-29.1	-0.4	/	9.7	/
Cc1ccc(C)c(N2CCN(CCCNC(=O)CCn3c(=O)c4cccn4c4cccnc43)CC2)c1	2.6	10.9	2.8	-1.5	-0.8	21.0	-10.2	1.6
CCOC(=O)CCCCCC(=O)Nc1ccc2c(c1)C(=O)N([C@H](C)CO)C[C@H](C)[C@@H](CN(C)C(=O)Nc1ccc(OC)cc1)O2	-3.4	/	0.1	6.9	-1.0	/	5.0	/
Cc1cc(=O)oc(C)c1C(=O)OC(C(=O)c1ccccc1)c1ccccc1 (stereo not given)	-0.4	7.2	-0.3	0.0	-0.4	7.1	-2.9	-1.3
CCOc1ccc(C(=O)N2CCc3ccccc32)cc1	3.8	-9.5	4.6	6.1	-3.4	-8.6	-4.0	-2.3
COC(=O)/C=C1/N/C(=N\c2nc(C)cc(C)n2)N(c2ccc(C)c(C)c2)C1=O	-9.9	-5.9	-3.5	5.1	-0.1	-12.7	-0.4	-0.4
NNc1nc2c(F)cccc2s1	4.9	-6.1	1.9	3.7	-0.4	-9.6	-4.0	5.3
O=C(O)c1cccc2c1C(=O)c1ccc(Cl)cc1S2(=O)=O	1.5	/	-0.5	/	-0.7	/	-13.1	/
Cc1ccc2oc(=O)c3cnn(CC(=O)N4CCc5ccccc5C4)c3c2c1	-1.8	4.9	2.6	-1.4	1.9	-1.7	0.9	1.1
CC(=N\NC(=O)c1ccc([N+](=O)[O-])cc1)/C(=N/O)C(=O)Nc1ccccc1	3.0	2.0	3.7	/	-0.2	-4.8	4.0	0.4
COCCCn1c(SCC(=O)Nc2ccccc2F)nnc1-c1ccoc1C	1.9	-8.5	-5.7	-0.4	-0.7	1.3	-0.8	7.8
Cc1ccc(CNC(=O)COc2ccc(S(=O)(=O)N3CCCC3)cc2)cc1	-1.9	-4.5	1.8	3.1	1.8	0.8	-1.6	-9.1
COc1cccc(NC(=O)c2cnc(SC)nc2)c1	1.7	-0.7	-0.6	5.6	-0.5	-12.8	-2.4	3.7
CCOc1ccc(OCCC(=O)OCC(=O)N2CCN(c3ccc(OC)cc3)CC2)cc1	-3.9	-3.0	-10.7	4.2	0.1	-6.1	2.4	-2.0
Cc1ccc(OCc2nnc(NC(=O)c3cccnc3)s2)cc1	-4.1	2.9	-1.9	3.3	-0.9	4.1	-6.8	-1.6
Cc1c(C(=O)N(Cc2ccccc2)C(C)C)cnn1-c1ccccc1	-5.7	12.4	0.1	5.5	-0.5	8.3	-5.8	-2.1
CC(=O)N1CCC(C(=O)NC2CC(C)(C)Cc3c2cnn3-c2ccc(F)cc2)CC1 (stereo not given)	0.8	9.8	2.2	-2.5	-0.3	-10.6	-0.5	2.9
COc1cccc2cc(C(=O)NCCN3CCOCC3)c(=O)oc12	-2.6	-1.3	-1.7	-1.6	-0.1	-14.3	-8.5	1.7
N#CC(C(=O)NCCc1ccccc1)c1nc2ccccc2nc1N1CCOCC1 (stereo not given)	15.2	5.8	4.1	-2.1	-0.6	26.4	-2.5	?
NC(N)=NS(=O)(=O)c1ccc(N=C2C(=O)Nc3ccccc32)cc1	-7.5	/	-0.6	0.4	0.3	-17.7	-9.2	5.3
Cc1ccc(C(=O)N2CCN(c3ncnc4c3cnn4-c3ccccc3)CC2)cc1	5.7	17.2	-1.6	2.3	-0.5	18.9	9.1	1.9
COc1cc(OC)c(OC)cc1CNC1CCCCCC1	-6.8	1.9	3.1	2.7	0.6	-10.1	1.6	2.6
O=C(Nc1c(F)cc(F)cc1Br)c1cc(-c2ccc(O)cc2)on1	19.6	-14.3	-1.3	5.0	-1.1	-4.1	-2.3	?

# Additional records:
molecule	Beta cell apopt	Calb FLC	LANA-H2A inh	UCH37 inh	Bfl-1 A1 inh	T cruzi repl	B2AR ag	RanGTP-Impb inh
O=C(Nc1ccccc1)Nc1cc(OCC(F)(F)F)cc(OCC(F)(F)F)c1	/	-13.3	/	4.9	/	87.1*	15.8	3.6
CCOc1ccc(S(=O)(=O)N/N=C(\C)Cc2ccc(OC)cc2)cc1	-0.2	38.0	-2.4	/	-0.2	-9.2	3.2	4.7
Cc1c(C(C)O)nnn1-c1nonc1N (stereo not given)	0.5	2.5	0.8	3.2	-1.0	5.0	-3.0	6.1
COc1ccc(N(C(=O)c2ccncc2)S(=O)(=O)c2ccc(F)cc2)cc1	/	-1.4	-3.9	/	-0.3	-26.7	-4.7	7.0

# Bioassay records from PubChem.
